NPYLR7 agonist: activates Aedes aegypti NPYLR7 receptor. HEK293T NPYLR7/Galpha15, GCaMP6s calcium fluorescence. activation, % at 10 µM. 270,000 tested, 0.15% active. AID 1259423; in the data active means activation above about 40%;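 further: 0% = vehicle and 100% = reference agonist at the receptor; some compounds past the cut are filed as inactive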
NPYLR7 agonist max-min: recorded beside NPYLR7 agonist, whose call it bears; activation, %; measured here: Max-Min RFU normalised activation; some inactives read as strong as hits;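 span of the calcium signal over five minutes; 0% = vehicle and 100% = native peptide agonist; compound fluorescence can raise it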
Active calls of the source: *; & = joins results of further samples. A portion of the library; rates above refer to the full screens.

SMILES	NPYLR7 agonist	NPYLR7 agonist max-min
Cc1ccc(CN(C)C(=O)CN(C)CC(=O)Nc2c(Cl)cccc2Cl)o1	7	5
O=C(NCc1cccs1)c1cc(-c2ccco2)on1	3	2
CC(C)N(C)Cc1ccccc1CNC(=O)NCCC(=O)N1CCN(C)CC1	0	-1
CCCCC(=O)N(CCC)C(C)c1nc2cc(Cl)ccc2c(=O)n1-c1ccc(C)cc1 (stereo not drawn)	-2	-8
NS(=O)(=O)CC1CCN(c2nccc(Oc3ccc(F)cc3)n2)CC1	3	-6
COc1ccc(CN2CCC2(C)C(=O)N2CCN(C(C)=O)CC2)c2ccccc12 (stereo not drawn)	-5	-11
O=C(NCc1cn2ccccc2n1)C1CCC(=O)N(CCN2CCOCC2)C1 (stereo not drawn)	10	6
O=C(CSCc1ccncc1)Nc1ccc(-c2cncnc2)cc1	-2	6
O=C(NCC1=CCCCC1)C(c1cccnc1)N1CCOCC1 (stereo not drawn)	12	-4
COC(=O)c1ccc(CN2CCOC(Cc3cccc(OC)c3)C2)cc1 (stereo not drawn)	3	-1
Cc1nc2[nH]n(C)c(=O)c2c(C)c1CC(=O)N1CCCC(C)C1 (stereo not drawn)	10	3
CCc1nc2ccc(C(=O)N3CCN(C(C)=O)CC3)cn2c1N(CC)C(C)=O	-5	-11
CN(Cc1cc(C2CC2)n[nH]1)C(=O)c1cc(Cn2cnc3ccccc32)on1	23	18
O=C(C1=CCCC1)N1CCCC(Nc2ccccc2)C1 (stereo not drawn)	3	0
O=C1C2C3C=CC(C3)C2C(=O)N1CNc1cccc(Cl)c1 (stereo not drawn)	0	0
CCOC(=O)c1ccc(NC(=O)CSc2ccc3nnc(-c4ccc(C)cc4)n3n2)cc1	2	20
COC(=O)C1=C(C)NC2=C(C(=O)CC(c3ccccc3)C2)C1c1ccccc1Cl (stereo not drawn)	3	1
CCN1CC=C2C(C#N)C(=N)C(C#N)(C#N)C(c3cccs3)C2C1 (stereo not drawn)	50*	41*
CNc1cncc(-c2cccc(C(=O)NC3CC3)c2)n1	1	0
Cc1cccc2nc(-c3ccccn3)c(NC(C)(C)CC(C)(C)C)n12	-6	-6
CCn1cc(C(=O)NCCc2ccccc2)c2nn(-c3ccccc3)c(=O)c-2c1	4	4
CCn1cnc2c1c(=O)n(Cc1ccco1)c(=O)n2-c1ccc(Cl)cc1	3	1
O=C(NC(C(=O)N/N=C\c1ccc(F)c(Br)c1)c1n[nH]c(=O)c2ccccc12)c1ccccc1 (stereo not drawn)	9	21
O=C(Cc1ccccc1)N(Cc1ccc(F)cc1)Cc1nc2cc(Cl)ccc2o1	-1	-12
Cc1oc(-c2ccc(Cl)cc2)nc1CN1CCCCC1CCc1ccccn1 (stereo not drawn)	-4	4
Cc1noc2c1C1(C(=O)N(Cc3ccccc3)c3ccccc31)C(C#N)C(N)=N2 (stereo not drawn)	-2	-1
CC(C)(C)c1ccc(C(=O)Nc2cc(C(=O)NCc3cccs3)ccc2N2CC3CC(C2)c2cccc(=O)n2C3)cc1 (stereo not drawn)	-4	2
CC1=C(c2ccc(C)cc2)S(=O)(=O)N=C1Nc1ccc(C)cc1	1	-3
O=C(NC(c1ccc(Cl)cc1)c1cnccn1)C1CCN(Cc2ccccc2)CC1 (stereo not drawn)	14	2
CCCn1c(=O)c2c(=S)nc(C)[nH]c2n(CCC)c1=O	6	5
OCCOc1ccccc1CN1CCOC(c2ccc(Cl)c(Cl)c2)C1 (stereo not drawn)	-1	-4
O=S(=O)(NCC(c1ccsc1)N1CCCC1)c1ccc(-c2ccccc2)cc1 (stereo not drawn)	7	-5
CN(C)CCN(Cc1ccco1)C(=O)c1ccncc1F	4	3
O=C(COc1ccc2ccccc2c1)NN=Cc1ccncc1	4	2
O=C1c2ccccc2C(=O)N1CNc1ccc(Oc2ccccc2)cc1	0	-7
Cc1cc(Cl)ccc1C(=O)N(Cc1c(C)nn(C)c1C)C(C)C	0	-3
O=C(OCc1cccc2cccnc12)C1CC2CCCC(C1)C2=O (stereo not drawn)	-4	-4
COC(=O)CSc1nnc(N2CCN(c3ccccc3)CC2)s1	-3	4
CC1CN(C(=O)Cn2cnc3c(nnn3-c3cccc(F)c3)c2=O)CC(C)O1 (stereo not drawn)	-3	-10
COc1ccc(OC)c(NC(=O)Cn2cc(OC)c(=O)cc2CN2CCN(c3ccccc3)CC2)c1	-2	-4
Cc1ccccc1C1C(C(=O)C(C)C)=C(O)C(=O)N1c1ccc(C(=O)O)cc1 (stereo not drawn)	19	17
COC(=O)c1c(O)ccc(-c2ccc(C)cc2)c1C(=O)OC	-2	-5
O=C(c1sccc1-c1ccccc1)N1CCN(CC2CCCO2)CC1 (stereo not drawn)	-2	-5
COc1ccc(C(C)=O)cc1CN1C(=O)C(C)ON=C1c1cccc(Cl)c1 (stereo not drawn)	3	3
Cc1cc(NC(=O)CNC(=O)c2cc(Cl)ccn2)ccc1Br	5	3
COC(=O)CO[C@@H]1CO[C@H]2[C@@H]1OC[C@@H]2n1cc(-c2ccccc2)nn1	-10	-15
Cc1ccc(C2CCCN2Cc2noc(C(C)(C)C)n2)cc1C (stereo not drawn)	4	3
Cc1ccc(-c2cnn3c(N4CCCCC4)cc(C)nc23)cc1	-8	-10
CCc1nc2ccc(C(=O)N3CCNC(=O)C3)cn2c1N(C)C(=O)c1cccc(OC)c1	20	19
Cc1cccc2sc(N(CCN(C)C)C(=O)/C=C/c3cccs3)nc12	-5	-9
O=C(CC1C(=O)NCCN1Cc1ccoc1)NCCC1=CCCCC1 (stereo not drawn)	12	12
O=C(/C=C/c1ccccc1)NC1CCN(c2ccccc2C(=O)NCc2ccco2)CC1	0	9
CCc1nc(C)cn1S(=O)(=O)c1ccc(OC)c(C(C)(C)C)c1	7	4
Cc1ccccc1N1CCN(C(=O)c2ccccc2N2CCC(NC(=O)C3CC3)CC2)CC1	0	2
COc1ccc(OC)c(N2CCN(C(=O)c3ccc(Cl)cc3)C(C)C2=O)c1 (stereo not drawn)	0	4
CCCCCCc1nnc(NC(=O)CC(C)C)s1	8	4
CCCn1c(=O)c2c(nc3n2CC(C)CN3c2ccc(OCC)cc2)n(C)c1=O (stereo not drawn)	3	8
CCSc1nc2c(c(=O)n1-c1ccc(C)cc1)SCC2	1	-1
O=C(NCC1CCN(c2ccc(F)cc2)C1)N1CCCC1c1ccncc1 (stereo not drawn)	2	2
CC(=O)Nc1ccc(C(=O)NC(C)(C)c2nc(C(F)(F)F)cs2)cc1	0	-1

One compound at a time, from the list above. Order of values: NPYLR7 agonist, NPYLR7 agonist max-min
`COc1ccc(C(C)=O)cc1CN1C(=O)C(C)ON=C1c1cccc(Cl)c1` (stereo not drawn) is entered as 3, 3
`Cc1oc(-c2ccc(Cl)cc2)nc1CN1CCCCC1CCc1ccccn1` (stereo not drawn) is entered as -4, 4

Remaining list, next part
SMILES	NPYLR7 agonist	NPYLR7 agonist max-min
CC(N)C(O)c1cccc(O)c1 (stereo not drawn)	-6	-11
COCCNc1nc2c(C)cccn2c(=O)c1C=C1SC(=S)N(CC(C)C)C1=O	8	11
O=C1NCCN(Cc2cccs2)C1CC(=O)N1CCCCCC1 (stereo not drawn)	-1&6	-4&5
O=C(NNC(=O)c1cc(Cl)ccc1O)c1ccc(Cl)cc1	7	2
CCCCC(=O)NC1CCN(Cc2ccc(Br)s2)CC1	6	6
CC(C)CNC(=O)CCN(Cc1ccccc1)c1nc(-c2ccccc2)nc2ccccc12	15	24
COCCCN1C(=O)N(Cc2ccccn2)C(=O)C12CCN(Cc1cc3ccccc3o1)CC2	-13	-15
COc1ccc(C(=O)NCCc2nnc3ccc(SCC(=O)c4ccccc4)nn23)cc1	4	-9
Nc1c(C(=O)N2CCCCC2)ccc2c1C(=O)c1ccccc1C2=O	2	1
COc1ccc(S(=O)(=O)Nc2ccc(SC)nc2)cc1OC	-1	-2
O=C(Cc1cccs1)N1CCC(c2nc(-c3ccc(C(F)(F)F)cc3)no2)CC1	-13	-15
O=C(CCc1nnc(C2CCCCC2)o1)NCCCc1ccccc1	2	7

Rewritten field by field: part of the list above.
COc1ccc(OC)c(N2CCN(C(=O)c3ccc(Cl)cc3)C(C)C2=O)c1 (stereo not drawn)
  NPYLR7 agonist: 0
  NPYLR7 agonist max-min: 4

CCCCCCc1nnc(NC(=O)CC(C)C)s1
  NPYLR7 agonist: 8
  NPYLR7 agonist max-min: 4

CCCn1c(=O)c2c(nc3n2CC(C)CN3c2ccc(OCC)cc2)n(C)c1=O (stereo not drawn)
  NPYLR7 agonist: 3
  NPYLR7 agonist max-min: 8

CCSc1nc2c(c(=O)n1-c1ccc(C)cc1)SCC2
  NPYLR7 agonist: 1
  NPYLR7 agonist max-min: -1

Continuation:
SMILES	NPYLR7 agonist	NPYLR7 agonist max-min
CC(C)CN1CCC1(C)C(=O)Nc1ccc(-n2cccc2)cc1 (stereo not drawn)	2	0
CCC1CN(Cc2ccc(S(=O)(=O)NC)cc2)CCN1C(C)C (stereo not drawn)	-2	-4
COC(=O)C1CCCC1NC(=O)CCc1ccccc1Cl (stereo not drawn)	0	1
CC(C)C(C)NS(=O)(=O)c1c(Cl)cc(Br)cc1Cl (stereo not drawn)	23	18
CC(C)(C)c1cc(C(=O)N2CC(=O)N3CCc4ccccc4C3C2)n(Cc2ccccc2)n1 (stereo not drawn)	21	21
O=C(c1ccc(NS(=O)(=O)c2ccc3c(c2)OCCCO3)cc1)N1CCC2CCCCC2C1 (stereo not drawn)	2	1
Cn1c(=O)c(-c2nc3ccccc3[nH]2)c(Cl)c2cc(Cl)ccc21	6	4
CCSCC(C)NCc1nc(-c2ccccc2C)no1 (stereo not drawn)	6	26
CC(C)OCCCNC(N)=O	16	14
O=C(Nc1nc(CC(=O)N2CCCc3ccccc32)cs1)c1ccc(=O)[nH]c1	6	8
COc1ccc(C(=O)N2CCC(C(=O)NC3CCCC[C@H]3NC(=O)c3ccc(F)cc3)CC2)cc1 (stereo partly drawn)	2	11
CC(C)Oc1ccc(C(=O)N2CCCC(O)C2)cc1 (stereo not drawn)	0	-2
C=C(C)Cn1c(C(=O)N2CCN(C(=O)Nc3ccccc3C)C(C)C2)cc2ccsc21 (stereo not drawn)	-2	0
COc1cc(OC)cc(C(=O)NCC2CCCN(C(=O)CCN3CCCCO3)C2)c1 (stereo not drawn)	3	-1
Cc1ccc2nc(N(CCCN(C)C)C(=O)CN3C(=O)c4ccccc4C3=O)sc2c1	11	9
CCc1nnnn1Cc1ccc(OC)cc1Cl	-2	-4
Cc1ccc2ncc(CCNC(=O)CC(C)(C)O)n2c1	2	4
Cc1ccc(-c2cc3c(=O)n(CC(=O)NCc4ccccc4Cl)ccn3n2)cc1	3	3
Cc1oc(-c2ccccc2Cl)cc1C(=O)N1CCCCC1CO (stereo not drawn)	7	5
COc1cc(NS(=O)(=O)c2ccc(OC(F)(F)F)cc2)cc(OC)c1	1	1
Cn1ccnc1C1CCCCN1C(=O)CC1(c2ccccc2)CC(=O)N(CCc2ccccn2)C1=O (stereo not drawn)	14	0
CC(=O)NC1C(OC(C)(C)C)OC(COC(C)=O)C(OC(C)=O)C1OC(C)=O (stereo not drawn)	0	-1
O=[N+]([O-])c1ccc(NN=Cc2c(F)c(F)c(F)c(F)c2F)cc1	3	37
Cc1cn2nc(N3CCCC3c3c(C)nn(C)c3Cl)sc2n1 (stereo not drawn)	3	3
COC(=O)Cc1csc(N(C)C(=O)c2cc(C)n(C(C)C)c2C)n1	3	3
c1ccc2nc(C3=NCCN3)ccc2c1	3	-4
COc1ccc(-c2cc(N)n(-c3ccc(C(=O)Nc4ccccc4OC)cc3)n2)cc1	6	3
CCCc1cc(CNC(=O)c2cccc3ccnn23)on1	1	-3
CCOC(=O)Cn1c(C2CC(=O)N(c3cccc(Cl)c3)C2)nc2ccccc21 (stereo not drawn)	9	15
CC[C@H]1OC(=O)[C@H](C)C(=O)[C@H](C)[C@@H](O[C@@H]2O[C@H](C)C[C@H](N(C)C)[C@H]2O)[C@](C)(OC)C[C@@H](C)C(=O)[C@H](C)[C@@H]2N(CCCCn3cnc(-c4cccnc4)c3)C(=O)O[C@@]21C	-2	-6
CC(C)c1cc(C2CCN(C(=O)c3cc(=O)c4ccccc4[nH]3)CC2)[nH]n1	6	1
COc1ccc(C(=O)Nc2cc(C(=O)N3CCOCC3)cn(C)c2=O)c(OC)c1	-13	-17
CCCOc1ccccc1C1C(C(=O)OC2CCCC2)=C(C)NC2=C1C(=O)CCC2 (stereo not drawn)	-6	-9
CCNC(=O)c1ccc(NC(=O)c2cnc(C)[nH]2)cc1	2	410
CCn1c(=O)c(C(=O)NCc2ccco2)nn(-c2ccc(S(C)(=O)=O)cc2)c1=O	3	4
COc1cc2c(cc1OC)CN(C(=O)C1CCC(=O)N(Cc3ccccn3)C1)CC2 (stereo not drawn)	19	9
CC1CC(NC(=O)c2ccncc2)C(=O)N1c1ccccc1 (stereo not drawn)	4	2
O=C1CN(C(=O)CC2C(=O)NCCN2CC(c2ccccc2)c2ccccc2)CCN1 (stereo not drawn)	8	5
COc1ccc2c(c1)CCN(S(=O)(=O)C1CC1)C2	9	4
CC(=O)c1ccc(Oc2cc(C(F)(F)F)nc(SCc3cccc(C)c3)n2)cc1	2	4
Cc1ccc(NC(=O)CN(C)C(C)C(=O)N(C)c2ccccc2)nc1 (stereo not drawn)	5	3

Screening data as filed in PubChem.
